Bead autofluor: compound fluorescence in toxin protease inhibitor counterscreen | compound autofluorescence counterscreen, microsphere flow cytometry; active compounds read high | fluorescence intensity (test concentration not listed) | 360,000 tested, 3.1% active | AID 624483;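 active = at least 3 SD above the mean of all compounds, about 16000 in these data; inconclusive = too few beads counted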;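 also: 100 nL of 1 mM stock went into each well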
PrP 5UTR inh: inhibition of PrP 5' UTR reporter expression. 340,000 tested, 0.35% active. AID 488862. cell-based PrP 5' UTR mRNA reporter, plate reader. inhibition, % (concentration not given with the values);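 active = every replicate at 50% or more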;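 also: 0 = median of the neutral control wells; tested in H4 reporter cells; numbers are from one replicate; inactives centre near -14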
BJeLR viability: BJeLR cell viability loss; BJeLR (HRASV12) viability, CellTiter-Glo ATP luminescence, 48 h; reference of the scale not given here; inhibition, % (concentration not given with the values); 300,000 tested, 0.17% active;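 active = replicate mean above 50%; inconclusive = above 50% but judged a plate artefact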;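 also: 50 nL library stock added to about 25 µL; numbers are from one replicate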
Mtb hypoxia inh: Mtb hypoxia fluorescent reporter inhibition; AID 1159583; fluorescence inhibition, % (concentration not given with the values); M. tuberculosis hypoxia-regulated fluorescent reporter, fluorescence; 300,000 tested, 0.1% active;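 active = 35 to 45% if threefold the growth effect, above 45% if 1.5-fold the growth effect; inactive = the rest, general growth blockers included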;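 also: wells of about 50 µL received 100 nL stock; 0% = vehicle wells and 100% = reference inhibitor wells; whole bacteria with a GFP reporter of the hypoxia response; strong numbers were not always called active; many hits fall short of the cut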
ugtP null kill: kills S. aureus RN4220 lacking UgtP. S. aureus RN4220 ugtP deletion, OD600 growth, 16 h; some inactives read as strong as hits. 330,000 tested, 0.54% active. growth inhibition, % (concentration not given with the values);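 active = z-score under -3 and OD600 up to 0.15 on both plates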;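 also: plate controls were untreated wells for no effect and antibiotic for full effect; wells of about 80 µL received 100 nL stock; the first replicate is given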
Sa RN4220 lethal: S. aureus RN4220 growth inhibition; OD600, 16 h; inhibition, % (test concentration not listed); 330,000 tested, 0.33% active;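 active = z-score of -3 or lower and OD600 up to 0.18 on both plates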;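 also: plate controls were untreated cells for no effect and reference antibiotic for full effect; stock transfer was 100 nL into about 80 µL; one replicate is shown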
Mtb hypoxia inh growth: second read-out of Mtb hypoxia inh, no call of its own (marks repeat the call); growth inhibition, %; measured here: M. tuberculosis growth (absorbance);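 0% = vehicle and 100% = reference antibiotic; read after six days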
An asterisk follows results filed as active; ? = inconclusive; · = no result given.

SMILES	Bead autofluor	PrP 5UTR inh	BJeLR viability	Mtb hypoxia inh	Mtb hypoxia inh growth	ugtP null kill	Sa RN4220 lethal
O=C(O)c1ccc(CNC(=O)c2ccc(S(=O)(=O)N3CCCCC3)cc2)cc1	·	·	·	12.5	7.6	-0.2	3.5
O=c1cc(C(F)(F)C(F)F)oc2ccccc12	?	5.2	1.6	1.3	0.0	2.3	4.7
COc1ccccc1N1CCN(C(=O)C2CCN(C(=O)c3cccc(Cl)c3)CC2)CC1	5366	-17.2	-4.0	0.2	6.6	0.5	1.6
Cc1cc(C)c(/C=N/n2c(C)cc(C)c(C#N)c2=O)c(C)c1	2339	-4.3	-4.3	·	·	·	·
O=C(Cc1ccccc1)Nc1ccc(NC(=O)C2CC2)nc1	3955	-23.5	11.5	·	·	-0.3	-2.5
CN(CC(=O)Nc1ccccc1Br)CC(=O)Nc1ccccc1-c1ccccc1	·	-8.4	·	-6.9	-2.7	-11.8	-1.1
Cc1nn(C)c(C)c1S(=O)(=O)N(CC(=O)NCCN1CCOCC1)c1ccc(C(C)C)cc1	5095	-17.4	·	3.1	0.8	11.5	7.0
Cc1cc(=O)[nH]c(NN=CC(C)c2ccccc2)n1 (stereo not given)	·	·	·	7.6	7.6	2.8	7.1
COc1ccc(NC(=O)c2cc(-c3ccc4c(c3)OCO4)on2)cc1OC	2885	-12.8	5.3	0.6	-4.6	6.9	6.5
COc1ccc(N2CC(C(=O)NN=Cc3ccc([N+](=O)[O-])cc3)CC2=O)cc1 (stereo not given)	·	·	·	4.7	10.5	0.6	1.0

Single records, from the list above. Screens in order: Bead autofluor	PrP 5UTR inh	BJeLR viability	Mtb hypoxia inh	Mtb hypoxia inh growth	ugtP null kill	Sa RN4220 lethal
`O=c1cc(C(F)(F)C(F)F)oc2ccccc12` in the list: ?	5.2	1.6	1.3	0.0	2.3	4.7
`O=C(Cc1ccccc1)Nc1ccc(NC(=O)C2CC2)nc1` in the list: 3955	-23.5	11.5	·	·	-0.3	-2.5
`COc1ccccc1N1CCN(C(=O)C2CCN(C(=O)c3cccc(Cl)c3)CC2)CC1` in the list: 5366	-17.2	-4.0	0.2	6.6	0.5	1.6
`COc1ccc(NC(=O)c2cc(-c3ccc4c(c3)OCO4)on2)cc1OC` in the list: 2885	-12.8	5.3	0.6	-4.6	6.9	6.5
`COc1ccc(N2CC(C(=O)NN=Cc3ccc([N+](=O)[O-])cc3)CC2=O)cc1` (stereo not given) in the list: ·	·	·	4.7	10.5	0.6	1.0

Next section.
SMILES	Bead autofluor	PrP 5UTR inh	BJeLR viability	Mtb hypoxia inh	Mtb hypoxia inh growth	ugtP null kill	Sa RN4220 lethal
O=C(CCCCn1c(=O)c2ccccc2n(CC(=O)Nc2ccc(F)cc2)c1=O)NCc1ccco1	2828	5.7	-0.3	·	·	8.1	3.8
COc1cc(C(=O)Nc2cc(C)ccn2)ccc1OCC(=O)N1CCOCC1	5679	-29.0	10.9	-5.8	-1.1	-2.3	-1.6
C[C@@]12C(=O)N(CC3CC3)CC(=O)N1[C@H](C1CC1)[C@@H]1C(=O)N(c3ccccc3)C(=O)[C@@H]12	4229	-12.1	-5.6	3.3	5.2	-4.7	-9.0
O=C(Nc1ccc2c(c1)OCO2)C1Cc2ccccc2CN1S(=O)(=O)c1cccs1 (stereo not given)	·	-34.8	5.2	17.3	5.5	-5.5	8.6
COc1ccc(Cl)cc1C(=O)OCC(=O)Nc1cccnc1Cl	6521	-3.7	·	9.4	3.9	10.0	6.2
COc1cc(/C=N/NC(=O)C(=O)NCc2ccco2)ccc1O	9709	-21.2	10.7	·	·	·	·
C=C1CC(C(=O)N/N=C/c2ccccc2)C1	2432	-21.7	3.2	·	·	·	·
Cc1cc(C)c2c3c(sc2n1)C(=O)N(Cc1ccccc1)CC(=O)N3	5917	-27.1	-3.0	14.6	3.2	-2.5	2.2
O=C(CON=Cc1ccc(Cl)cc1Cl)NNC(=O)c1ccc(Cl)cc1Cl	·	·	·	-6.4	-1.2	-7.5	2.4
COC(=O)c1cccc(C23CC4(C2)C(CN(Cc2ccc(C(F)(F)F)cc2)C4c2ccccc2)C3c2ccc(C(F)(F)F)cc2)c1 (stereo not given)	·	·	·	0.2	1.7	1.9	4.7
Cc1cccc(C(=O)Nc2ccccc2-c2nnn(CC(=O)Nc3ccc4c(c3)OCCO4)n2)c1	15977	-0.9	6.1	0.8	-2.7	-1.4	5.0
C=CCn1c(=O)c2ccccc2n2c(SCc3nc(N)nc(Nc4ccccc4C)n3)nnc12	11786	-25.7	-12.0	-3.1	3.2	-8.9	-5.9
Cc1ccc(C)c(N(C)C(=O)CCS(=O)(=O)c2cccc3nonc23)c1	3962	-7.0	-7.5	13.3	13.6	8.7	7.2
CNC(=O)CN(C1CCCCC1)S(=O)(=O)c1ccc(OC)c(Cl)c1	3013	-4.3	-9.1	·	·	23.6	1.6
CCc1cc(=O)oc2c(CN3CCN(C)CC3)c(O)ccc12	3530	-17.5	0.9	10.1	3.7	11.7	-2.2
CC(=O)Nc1ccc(NC(=O)C(C)OC(=O)/C=C/c2ccc3c(c2)OCO3)cc1 (stereo not given)	5188	-5.7	-12.4	0.1	0.5	-3.3	2.3
CC(C(=O)c1c[nH]c(C(N)=O)c1)c1ncc(C(F)(F)F)cc1Cl (stereo not given)	4487	7.0	-2.5	1.2	8.5	3.9	0.4
O=C(N[C@H]1C/C=C\C(c2cccc(F)c2)N(Cc2ccccc2)C(=O)C1)OCC1c2ccccc2-c2ccccc21 (stereo not given in full)	3348	-13.5	·	7.2	10.7	0.6	2.5
CCn1nc(C)c(CN2CCC(n3nccc3NC(=O)c3ccccc3OC)CC2)c1C	?	-19.0	2.0	2.1	6.4	5.9	2.3
Cc1ccccc1OCCCc1c(C)n[nH]c1C	4513	2.0	-3.0	5.0	-3.4	-11.1	9.0
Cc1cccc(NC(=O)CN2CCN(C(=O)CN3C(=O)NC4(CCCCC4C)C3=O)CC2)c1C (stereo not given)	3902	-19.7	·	8.5	12.3	7.0	0.1
COC(c1ccccc1)c1nnc(CCC(=O)N2CCN(C3CCCC3)CC2)o1 (stereo not given)	2612	-15.7	-0.3	-0.2	-2.6	2.0	2.3
c1ccc2c(c1)Cc1cc(CN3CCOCC3)ccc1-2	10755	49.6	4.8	2.5	4.6	3.3	3.3
S=C1NC(C23CC4CC(CC(C4)C2)C3)=CC(c2ccc3c(c2)OCO3)N1 (stereo not given)	5194	-16.9	14.0	·	·	·	·
Cc1cccc(NC(=O)CN(C)S(=O)(=O)c2ccc(-c3ccc(=O)[nH]n3)s2)c1C	5416	-17.5	-0.4	-13.6	2.0	-4.7	0.3
COCCN(C(=O)CCC(=O)Nc1cc(C)on1)C(C(=O)NC1CCCC1)c1ccc(C)cc1 (stereo not given)	4518	-9.3	-16.1	-6.7	-1.8	-3.1	-6.0
CCN(CC(=O)Nc1ccc(NC(C)=O)cc1)C(=O)/C=C/c1cn(-c2ccccc2)nc1-c1ccc(F)cc1	·	-7.5	13.5	-0.4	-3.4	-5.2	3.8
CSCCC1C(C#N)=C(N)Oc2n[nH]c(-c3cccs3)c21 (stereo not given)	3003	-25.6	-10.1	13.7	3.8	0.6	10.8
Nc1nnnn1/N=C/c1ccc(N2CCCCC2)c([N+](=O)[O-])c1	3471	-21.1	7.7	·	·	·	·
CC(C)(OC1OC(CO)C(O)C(O)C1O)C1Cc2cc3ccc(=O)oc3cc2O1 (stereo not given)	·	·	·	7.5	5.4	9.8	3.0
O=C(O)c1ccccc1-c1ccccc1C(=O)Nc1ccc2c(c1)CCC2	3218	-18.4	-0.9	·	·	16.3	4.9
CCOC(=O)N1CCN(S(=O)(=O)c2c(C)[nH]c(=O)[nH]c2=O)CC1	2667	-4.3	-12.2	·	·	-4.0	1.9
CN(C)c1ccc(P(=O)(Nc2ccccc2)N2CCOCC2)c(NC(=O)c2cccs2)c1 (stereo not given)	2481	-10.3	0.4	-6.2	-1.6	2.2	-1.7
CN(C)c1ccc(C=NNC(=O)c2sccc2-n2cccc2)cc1	·	·	·	2.4	4.6	2.4	8.4
CCOc1ccc(CN2CCNC(=O)C2CC(=O)NCCc2ccccn2)cc1 (stereo not given)	3599	-20.0	-1.3	1.4	-4.2	6.0	4.1
Cc1ccc(S(=O)(=O)N2CCCN(S(=O)(=O)c3ccc(C)cc3)CC2)cc1	6860	-20.5	7.8	-4.8	4.3	0.7	-1.2
CCn1c(=O)cc(OCC(=O)Nc2ccccc2C#N)c2ccccc21	6030	-7.8	-3.8	·	·	-3.8	1.4
O=C(NCc1ccco1)c1ccc(COCC(F)(F)F)cc1	11400	-31.6	7.5	9.4	17.9	1.0	-0.2
CCOC(=O)N1CCC(Nc2c(-c3ccc(C)cc3)c(=O)c2=O)CC1	4037	-10.9	4.2	10.1	15.6	-8.6	3.5
Cc1ncsc1CCOC(=O)C12CC3CC(CC(C3)C1)C2	8410	2.0	6.4	7.4	10.6	15.2	12.0
CC1CCCCN1S(=O)(=O)c1ccc(C(=O)Nc2nnc(-c3ccncc3)o2)cc1 (stereo not given)	2098	-4.9	15.9	2.2	2.9	7.7	27.6
O=C(NC(=S)NNS(=O)(=O)c1ccccc1)c1cccnc1	4039	4.7	6.8	16.8	4.6	8.0	0.3
CC1=C(C(=O)Nc2ccccc2)C(c2ccc(C)o2)n2c(sc(=Cc3ccco3)c2=O)=N1 (stereo not given)	·	·	·	9.2	4.2	-3.0	0.1
CCN(CC(=O)Nc1c(F)cccc1F)C(=O)C1CCN(C(=O)Nc2ccccc2)CC1	5141	-15.8	·	12.5	9.8	0.1	-1.8
Cc1cccc(OCC(=O)Nc2ccc3c(C)cc(=O)oc3c2)c1	2013	-13.0	1.2	-7.2	-7.4	-3.0	-2.3
CC(O)CNc1nc2c(c(=O)n(C)c(=O)n2C)n1Cc1cccc(Br)c1 (stereo not given)	6863	-14.0	3.2	9.7	1.9	12.7	7.5
Cc1ccccc1NC(=O)c1cccc(N2C(=O)C3C4CC(C(Br)C4Br)C3C2=O)c1 (stereo not given)	5678	-16.2	·	4.4	11.2	0.8	-0.9
O=C(Nc1ccc([N+](=O)[O-])cc1)Nc1ccc(OC(F)F)c(Cl)c1	2116	-13.3	·	-5.7	3.9	99.8*	98.9*
CN1CCN(S(=O)(=O)c2cccc(C(=O)Oc3ccc(C(C)(C)C)cc3)c2)CC1	4326	-9.6	-15.4	1.5	-12.8	11.7	1.7
COc1ccc(OC)c(S(=O)(=O)N2CCN(C(=O)CCc3ccccc3)CC2)c1	4329	3.9	-0.1	-1.6	-6.3	-2.1	3.3

Remaining list, next part.
SMILES	Bead autofluor	PrP 5UTR inh	BJeLR viability	Mtb hypoxia inh	Mtb hypoxia inh growth	ugtP null kill	Sa RN4220 lethal
COc1cc(C2C(C#N)=C(C)NC3=C2C(=O)c2ccccc23)cc(OC)c1OC (stereo not given)	11695	33.6	·	11.9	3.3	4.8	6.8
CCS(=O)(=O)N1CCC2(CC1)OCCN2S(=O)(=O)c1ccc(OC)cc1	6112	-6.6	1.8	-3.7	4.9	1.0	0.5
Cc1ccc(-c2ccc(/C=N/n3cnnc3)o2)cc1Cl	4030	-15.0	4.9	·	·	·	·
Clc1ccc(-c2cc(CN3CCCCC3)no2)cc1Cl	3644	-6.2	-1.2	·	·	6.5	0.2
COc1ccc(C=Cc2c(-c3cccc(C)c3)oc3ccc(N4CCOCC4)cc23)cc1	·	·	·	18.9	12.3	2.0	-5.7
CC(Sc1n[nH]c(N)n1)C(=O)Nc1cccc2ccccc12 (stereo not given)	2998	-1.4	·	13.7	5.8	5.4	2.2
COCCCNC(=O)CNC(=O)c1nn(-c2ccc(OC)cc2)c(=O)c2ccccc12	3597	-28.3	1.7	7.9	8.5	9.6	2.4
O=C(O)c1c2c(nc3ccc(Cl)cc13)CCC2	4421	-9.9	0.7	13.8	-1.2	3.1	-6.7
CCCc1c(C(=O)N/N=C/c2cccnc2)nnn1-c1nonc1N	5825	-25.4	-8.8	·	·	·	·
Cc1ccc(CNC(=O)COC(=O)[C@@H]2CC(O)CN2S(=O)(=O)c2ccc3c(c2)OCCO3)cc1 (stereo not given in full)	1985	-26.5	-0.4	8.5	3.6	1.3	3.2
COc1ccc2nc(NC(=O)c3cccc(-c4cc5ccccc5oc4=O)c3)sc2c1	2360	-24.8	21.8	3.6	7.8	-3.0	9.0
CC(C)C1=CC(=NS(=O)(=O)c2cccc([N+](=O)[O-])c2)C=C(C(C)C)C1=O	5273	-69.0	7.8	·	·	-6.5	2.0

Bioassay records deposited in PubChem by several laboratories.
